Mtb growth – M. tuberculosis H37Rv growth inhibitors, H37Rv strain (AID 1626); M. tuberculosis H37Rv growth inhibition; higher % means a stronger effect; inhibition, % at 10 µM; hits with a dose series show IC50 in µM; hit rate 0.95% among 220,000;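 active = confirmed in a dose series; inconclusive = inhibition above 80% but not taken into the dose series; inactive = below 80% or under 30% at every dose of the series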;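 note: bacteria incubated seven days before Alamar blue readout; 0% = bacteria only wells and 100% = bacteria with antibiotic wells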
Mtb bLac sens – beta-lactam sensitization of Mtb H37Rv, H37Rv | M. tuberculosis H37Rv growth with meropenem, percent inhibition; hits of this screen are not shown here | inhibition, % at 25 µM | hit rate 0.27% among 330,000;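 active = about 74% or more and at least 40 points above the plate without the antibiotic, then above 30% in a dose series; inconclusive = first-round hits that could not be retested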;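 note: growth measured after seven days incubation then overnight dye step; 0% = bacteria only wells and 100% = bacteria with antibiotic; twin plates without the antibiotic show which effects depend on it; some results filed as inactive read as strong as hits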
YopH inh – YopH tyrosine phosphatase inhibitors, primary screen, biochemical, fluorescence Ex485/Em525; inhibition, %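 (about 10 µM by stock and volumes)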; hit rate 0.16% among 140,000;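 active = inhibition of 50% or more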;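 note: controls were vehicle for no effect and minimum signal wells for full effect; inactives centre near -20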
RecA splice inh – Mtb RecA intein splicing inhibitors, primary screen, biochemical, fluorescence, HTS | AID 2221, 2009 | cell-free RecA intein splicing | inhibition, %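 (about 9 µM by stock and volumes)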 | hit rate 0.75% among 290,000; in the data active = inhibition above about 30%; inconclusive = no clear call, values can overlap the other calls;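 note: 0% = vehicle wells and 100% = reference inhibitor control wells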
Target sequence (P9WHJ3 whole entry, looked up, canonical isoform): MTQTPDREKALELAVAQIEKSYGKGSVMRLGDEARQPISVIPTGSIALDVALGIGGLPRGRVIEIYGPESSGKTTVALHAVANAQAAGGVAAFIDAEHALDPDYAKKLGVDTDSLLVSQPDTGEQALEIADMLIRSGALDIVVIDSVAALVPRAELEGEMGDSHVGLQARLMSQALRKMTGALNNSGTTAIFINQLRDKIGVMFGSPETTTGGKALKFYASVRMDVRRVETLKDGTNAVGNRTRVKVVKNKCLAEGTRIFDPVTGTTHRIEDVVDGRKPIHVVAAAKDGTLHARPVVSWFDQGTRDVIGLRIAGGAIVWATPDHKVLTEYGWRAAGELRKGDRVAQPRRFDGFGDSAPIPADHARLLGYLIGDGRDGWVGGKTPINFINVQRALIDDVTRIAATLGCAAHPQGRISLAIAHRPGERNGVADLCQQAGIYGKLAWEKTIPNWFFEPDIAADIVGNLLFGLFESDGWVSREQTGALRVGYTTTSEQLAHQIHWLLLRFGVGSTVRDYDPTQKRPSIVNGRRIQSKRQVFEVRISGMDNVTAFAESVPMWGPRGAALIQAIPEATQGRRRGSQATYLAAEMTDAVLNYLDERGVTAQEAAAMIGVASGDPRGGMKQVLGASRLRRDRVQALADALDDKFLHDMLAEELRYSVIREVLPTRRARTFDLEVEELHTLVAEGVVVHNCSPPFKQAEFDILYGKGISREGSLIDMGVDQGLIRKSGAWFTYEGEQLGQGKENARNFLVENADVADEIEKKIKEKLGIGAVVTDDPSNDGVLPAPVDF
Arbovirus anti – antivirals against arbovirus infection, primary screen, cell-based, full library, 10K replicate subset | AID 1251, 2008 | arbovirus infection cell-based antiviral screen | hit rate 0.37% among 200,000 | inhibition, % at 10 µM;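 active = inhibition from about 30%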;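 note: bluetongue infection of BSR cells; cell survival read as ATP light after 72 h; 0% = infected wells without compound and 100% = uninfected wells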
Arbovirus anti repeat – also measured in Arbovirus anti; calls as there; inhibition, %; measured here: 10K subset replicate screen; many hits read low in the repeat;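 first of two repeat runs on a subset; 0% = infected and 100% = uninfected wells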
* marks the source's active call; other numbers are inactive results; ? = inconclusive; · = no result given.

SMILES	Mtb growth	Mtb bLac sens	YopH inh	RecA splice inh	Arbovirus anti	others
CC(C)=CCC/C(C)=C/CN(CC(C)O)CC(C)O (centres undefined)	-3.9%	-5.5	-23.2	0.3	5.9
COc1cccc2sc(Nc3nnc(-c4cccs4)o3)nc12	-3.6%	97.6	-20.5	-12.2	-38.1
CCCCN(CC)CCCNC(=O)c1ccc2c(c1)N(CC)C(=O)c1ccccc1S2(=O)=O	·	-4.6	·	-1.1	·
Cc1ccc2c(c1)cc(C)c1nnc(SCC(=O)NCc3ccco3)n12	6.8%	1.3	-51.3	4.2	-8.5
CC(C)(C)C(=O)NC(=S)Nc1cc(C(=O)O)ccc1Cl	7.1%	-6.3	-30.7	-1.1	7.4
CC1(C)CC(NC(=S)NCc2ccco2)CC(C)(C)N1	1.8%	-8.9	·	-0.5	4.1
CN1CCN(/N=C/c2ccc(Cl)c(Cl)c2)CC1	1.7%	-8.5	-24.7	5.5	-21.8
CSc1c(CC(=O)Nc2ccccc2)n(C)c2ccccc12	·	-1.4	·	-3.7	·
CCN(CC)C(=O)C12CC3CC(CC(Br)(C3)C1)C2	3.2%	3.7	·	-1.7	-1.2
CC(C)[C@H](NC(=O)c1ccccc1)C(=O)OCC(=O)N1CC(=O)Nc2ccccc21	-0.1%	1.7	-15.7	-3.9	0.2
CCOC(=O)c1ccccc1NC(=S)N1CCCCC1	-0.3%	5.1	-13.7	-4.9	1.6
COc1cc(C(c2nnnn2C(C)(C)C)N2CCN(c3nc4ccccc4s3)CC2)ccc1O (centres undefined)	-0.5%	10.9	-27.4	5.6	8.6
COc1cc(NC(=O)CCNS(=O)(=O)c2cc(Br)cnc2N)cc(OC)c1	·	-3.9	·	-1.7	·
C=CCN1C(=O)/C(=C\c2ccc(N3CCOCC3)o2)C(=O)NC1=S	-7.7%	1.7	-14.2	-0.3	-2.0
Cc1nn(C)cc1/C=N/NC(=O)CSc1ccccn1	-1.5%	-2.4	·	-4.0	·
CCN(CC)CCN1C(=O)C(=O)/C(=C(/O)c2ccc(S(=O)(=O)N3CCOCC3)cc2)C1c1ccc(C)cc1 (centres undefined)	·	-4.6	·	-0.3	·
O=C(c1cccc([N+](=O)[O-])c1)c1ccc2c(c1)C(=O)NC2=O	4.6%	-5.6	·	-0.1	3.3
COC(=O)C1=C(C)N(Cc2ccccc2)C(=NCc2ccccc2)N[C@H]1c1cccc(F)c1	·	82.5	·	7.4	·
COC(C[C@@H]1O[C@@H]1[C@H](O)[C@@H](C)OCc1ccccc1)OC	·	-4.9	·	-2.5	·
Cc1ccc(OC(=O)c2ccc(C)c([N+](=O)[O-])c2)cn1	19.0%	75.9	·	12.8	2.0
O=C1CNC(=S)N1c1nc2ccccc2s1	?	77.7	·	2.2	·
O=C1CC2(CCCCC2)Oc2ccc(O)cc21	-2.5%	2.2	-31.2	-27.5	0.1
CC(C)Sc1nc2c(cnn2-c2ccccc2)c(=O)[nH]1	-2.9%	-7.1	-30.2	0.3	-0.1
N=C1S/C(=C\c2cn[nH]c2-c2ccc(F)cc2)C(=O)N1c1ccccc1F	8.1%	5.4	-44.1	-0.5	-2.0
Cc1ccc(NC(=O)C2COc3ccccc3O2)cc1C (centres undefined)	·	7.7	·	1.4	·

Fetched by compound from the list above:
SMILES	Mtb growth	Mtb bLac sens	YopH inh	RecA splice inh	Arbovirus anti	others
CC1(C)CC(NC(=S)NCc2ccco2)CC(C)(C)N1	1.8%	-8.9	·	-0.5	4.1
COC(=O)C1=C(C)N(Cc2ccccc2)C(=NCc2ccccc2)N[C@H]1c1cccc(F)c1	·	82.5	·	7.4	·
CCCCN(CC)CCCNC(=O)c1ccc2c(c1)N(CC)C(=O)c1ccccc1S2(=O)=O	·	-4.6	·	-1.1	·
CN1CCN(/N=C/c2ccc(Cl)c(Cl)c2)CC1	1.7%	-8.5	-24.7	5.5	-21.8
CC(C)(C)C(=O)NC(=S)Nc1cc(C(=O)O)ccc1Cl	7.1%	-6.3	-30.7	-1.1	7.4
Cc1ccc(NC(=O)C2COc3ccccc3O2)cc1C (centres undefined)	·	7.7	·	1.4	·

Returning to the listing, starting two compounds before the break.
SMILES	Mtb growth	Mtb bLac sens	YopH inh	RecA splice inh	Arbovirus anti	others
N=C1S/C(=C\c2cn[nH]c2-c2ccc(F)cc2)C(=O)N1c1ccccc1F	8.1%	5.4	-44.1	-0.5	-2.0
Cc1ccc(NC(=O)C2COc3ccccc3O2)cc1C (centres undefined)	·	7.7	·	1.4	·
O=C(Nc1ccc2c(c1)oc1ccccc12)c1ccncc1	-8.0%	?	-47.4	-0.8	-4.4
COC(=O)Cc1ccc(NC(=O)c2ccccc2Cl)cc1	4.5%	-4.0	·	-2.1	-8.3
CCN(CC)S(=O)(=O)c1ccc(OC)c(NC(=O)c2cn(CC)c3nc(C)ccc3c2=O)c1	18.7%	7.6	·	1.7	-3.8
COc1cc(/C=C2/C(=N)N3C(SC)=NSC3=NC2=O)ccc1OC(=O)c1ccco1	·	84.6	·	24.9	·
Cc1ccc(CNC(=O)C2CCCN2S(=O)(=O)c2ccc(Cl)cc2)cc1 (centres undefined)	·	3.2	·	-0.6	·
Cc1cccnc1NC(=S)NCCc1ccccc1	1.0%	14.1	·	1.2	5.4
COCc1cc(=O)[nH]c(Sc2c(-c3ccccc3)c3ccc(Cl)cc3[nH]c2=O)n1	-3.5%	0.8	-6.8	4.1	2.0
COC(CNC(=O)CNC(=S)N(Cc1ccccc1)Cc1cccs1)OC	-1.3%	0.0	·	0.4	-13.8
Cc1ccc(C)c2sc(NC(=O)c3ccc(N4C(=O)CCC4=O)cc3)nc12	2.1%	-2.3	-21.0	-0.5	-7.9
Cc1ccc(-c2nc3ccccc3[nH]2)cc1N	-2.2%	-0.3	-4.1	-0.8	-11.1
COc1ccc(CCN(C)C(=O)C2CCN(Cc3cccc(OC)c3OC)CC2)cc1OC	-2.0%	-7.4	·	-0.5	5.0
CCOC(=O)C1CCCN(C(=O)/C=C/c2cccc([N+](=O)[O-])c2)C1 (centres undefined)	1.6%	-2.5	-24.8	-3.6	-2.6
Cc1cccc(CSc2nc3c(cc2C#N)CCC3)c1	-1.0%	-18.3	-37.0	-0.1	-5.2
CCOc1cc(-c2c(C#N)c(N)nc3c2CCc2ccccc2-3)ccc1O	65.5%	6.6	-23.3	4.0	-14.9
COc1cc2c(cc1OC)C(c1cccs1)N(C(=O)C(C)C)CC2 (centres undefined)	1.6%	8.0	-36.2	2.8	5.8
Cc1ccc(NC(=O)CCS(=O)(=O)c2ccc3nc(C)sc3c2)cc1	·	?	·	-0.7	·
Cc1cc(-n2nc(C)cc2C)n2ncc(-c3ccccc3)c2n1	-7.2%	10.7	-31.9	4.4	-6.1
Cc1ccc(-n2nc(C)c3c(C)c(CCC(=O)NC(C)c4ccccc4)c(C)nc32)cc1 (centres undefined)	32.0%	-3.2	-42.2	0.0	-23.9
N#Cc1c(NC(=O)C2CC(c3ccccc3O)=NO2)sc2c1CCC2 (centres undefined)	-5.4%	-1.6	-18.2	-0.7	1.5
Cc1c(/C(O)=C2\C(=O)C(=O)N(CCN(C)C)C2c2ccco2)cnn1-c1ccccc1 (centres undefined)	2.1%	-3.3	4.8	0.7	4.2
Cc1c(C(=O)N(Cc2ccccc2)C2CCS(=O)(=O)C2)oc2ccccc12 (centres undefined)	·	-4.1	·	-1.6	·
CN(CC(=O)N1CCN(c2ccc(F)cc2)CC1)S(=O)(=O)c1ccc2c(c1)c(=O)n(C)c(=O)n2C	-7.7%	2.0	·	-0.2	-0.5
CC12CCC(C(=O)N3CCCCC3)([C@H](Br)C1=O)C2(C)C (some centres undefined)	-2.7%	-5.5	·	-1.7	·
COCCNC(=O)c1ccc(CS(=O)(=O)c2ccc(C)cc2)o1	-5.2%	-1.7	-35.4	-1.4	2.5
COc1ccc(Cc2nnc(NC(=O)CSc3ccccc3)s2)cc1OC	2.6%	1.8	-27.3	1.9	-2.2

Sorted by count of non-hydrogen atoms (descending): some entries from above
SMILES	Mtb growth	Mtb bLac sens	YopH inh	RecA splice inh	Arbovirus anti	others
CN(CC(=O)N1CCN(c2ccc(F)cc2)CC1)S(=O)(=O)c1ccc2c(c1)c(=O)n(C)c(=O)n2C	-7.7%	2.0	·	-0.2	-0.5
COC(CNC(=O)CNC(=S)N(Cc1ccccc1)Cc1cccs1)OC	-1.3%	0.0	·	0.4	-13.8
Cc1ccc(NC(=O)CCS(=O)(=O)c2ccc3nc(C)sc3c2)cc1	·	?	·	-0.7	·
COCCNC(=O)c1ccc(CS(=O)(=O)c2ccc(C)cc2)o1	-5.2%	-1.7	-35.4	-1.4	2.5
COC(=O)Cc1ccc(NC(=O)c2ccccc2Cl)cc1	4.5%	-4.0	·	-2.1	-8.3
Cc1cccc(CSc2nc3c(cc2C#N)CCC3)c1	-1.0%	-18.3	-37.0	-0.1	-5.2

Further results follow:
SMILES	Mtb growth	Mtb bLac sens	YopH inh	RecA splice inh	Arbovirus anti	others
O=S(=O)(O)c1nc2ccccc2n1Cc1cccc2ccccc12	·	-9.2	·	2.4	·
C#CCOCCOCCOCCNc1nc(N2CCN(C(=O)C(Cc3ccc(O)cc3)n3cc(C(N)CC(C)C)nn3)CC2)nc(N2CCN(C(=O)C(Cc3cc4ccccc4[nH]3)n3cc(C(N)Cc4ccc(O)cc4)nn3)CC2)n1 (centres undefined)	?	99.2	·	0.7	-7.6
COC(=O)c1ccccc1C(=O)c1cccc2ccccc12	·	-1.7	·	2.5	·
Cc1ccc(S(=O)(=O)NCc2cccnc2)s1	-15.4%	17.5	-1.8	-9.3	2.2
O=C(NCCCc1ccccc1)c1cncc(Br)c1	·	0.2	·	3.5	·
Cc1onc(-c2ccccc2)c1C(=O)NC(C)CCc1ccccc1 (centres undefined)	·	-9.0	·	-0.2	·
CN(C)c1ccc(C2C3C(=O)NC(=O)C3ON2c2ccc(Cl)cc2)cc1 (centres undefined)	-1.6%	-2.6	-36.5	-2.3	-11.2	Arbovirus anti repeat=-7.9
CCOc1ccc(N(C(=O)CNC(=O)c2ccco2)C(C(=O)NCC2CCCO2)c2ccccc2)cc1 (centres undefined)	·	0.5	·	2.1	·
CCCc1nc(-c2cc3ccccc3[nH]c2=O)no1	15.8%	-8.7	·	-1.8	·
O=C(Nc1ccc(F)cc1)C1CCCN(c2cnccn2)C1 (centres undefined)	·	0.2	·	3.0	·
CCO[C@H]1OC(C(=O)O)=C[C@@H](c2ccccc2)[C@@H]1CCCO	-10.8%	-3.1	·	-0.9	·
CCC(c1nnc(SCC(=O)Nc2ccc(C(=O)N(C)C)cc2)n1Cc1ccccc1)N(C)C (centres undefined)	·	-3.0	·	-0.6	·
Cc1ccccc1NC(=O)NCC1CCN(c2ccc(S(=O)(=O)N3CCOCC3)cc2)CC1	·	-1.8	·	6.0	·
COc1ccc(-c2csc(C)n2)cc1OC	-8.9%	5.0	-23.4	-0.1	2.7
O=C1Nc2ccc(Br)cc2C1=Nc1ccc(-c2nnc3n2CCCCC3)cc1	·	-5.1	-8.2	5.8	-0.9
Cc1nn(-c2ccccc2)c(N2CCCC2)c1C=O	-11.1%	3.1	·	2.4	5.6
O=C1[C@@H]2Cc3c([nH]c4ccccc34)CN2C(=O)CN1CCCO	·	-0.9	·	-3.3	·
Cc1ccsc1/C=C(\C#N)C(=O)NCCCN1CCOCC1	-2.8%	-6.3	·	-0.9	9.1
O=C(Nc1nnc(-c2ccccc2)o1)c1cc(-c2cccs2)nc2ccccc12	·	95.4	-34.0	3.7	-22.7
COc1ccc(/C=C2\SC(=S)N(CC(=O)OCC(=O)Nc3ccc(C)cc3Cl)C2=O)cc1	1.2%	34.5	·	0.8	1.2
C=C(C)C(=O)Nc1cccc(C2=NOC3(C2)C[C@@H](C(N)=O)N(C(=O)CC(c2ccccc2)c2ccccc2)C3)c1 (some centres undefined)	1.8%	15.9	·	4.8	·
COCCn1nnnc1C(c1cc(OC)ccc1OC)N1CCc2ccccc2C1 (centres undefined)	2.8%	11.9	-33.7	15.6	-1.8
Cc1ccc(S(=O)(=O)NCCc2ccncc2)cc1[N+](=O)[O-]	·	-7.0	·	0.8	·
O=C(O)c1ccc(NC2OC[C@@H](O)[C@H](O)[C@H]2O)cc1 (some centres undefined)	·	0.5	·	-0.8	·
CCOC(=O)c1ccc(NC(=S)NCc2ccc(S(N)(=O)=O)cc2)cc1	·	0.2	·	0.6	·

Bioassay records (PubChem)

This is a subset, so the mix of outcomes need not match the whole.
